Lassa entry inh: qHTS for Inhibitors of binding or entry into cells for Lassa Virus. 300,000 tested, 1.2% active. Potency, µM (series often up to 37.9 µM), inactives show at the highest dose activity change, negative = inhibition, hits mostly inhibitors. Lassa virus pseudotype entry inhibition, cell reporter; control for the full effect not named in the record; active means well fitted inhibition curve with a large enough effect; inconclusive means small, poorly fitted or top-dose-only effect, or effect the other way; inactive means flat fitted curve, though single readings scatter; tested in HEK293 cells; also: % is scaled to controls: 0 for no effect and ±100 for the full control effect; nearly all actives have a fitted effect of over 50% in size; luciferase read-out
2A StopGo: High Throughput Screening for Foot and Mouth Disease Virus Antivirals; AID 1159524, 2015; Potency, µM (series often up to 57.9 µM), for the others: at the highest dose signal change, negative = less light; 410,000 tested, 1.2% active; human cells with a luciferase reporter of 2A StopGo recoding; control for the full effect not named in the record; active = well fitted falling curve with a large enough effect; inconclusive = small, poorly fitted or top-dose-only effect; inactive = no such curve, though single readings can be large or run the other way; tested in HEK293T cells; also: % is scaled to controls: 0 for no effect and ±100 for the full control effect; nearly all actives have a fitted effect of over 45% in size; luciferase light after 4 h
SARS PLP yeast: qHTS of Yeast-based Assay for SARS-CoV PLP. 330,000 tested, 0.19% active. Potency, µM (doses to about 32.9 µM), for the others: top-dose activity, positive = growth rescue. AID 485353, 2010. S. cerevisiae expressing SARS-CoV PLpro, growth rescue; control for the full effect not named in the record; also: 0% is about no effect; nearly all actives have a fitted effect of over 55% in size; growth read by luminescence after 48 h
Cruzain noTriton: qHTS Assay for Promiscuous and Specific Inhibitors of Cruzain (without detergent) | Cruzipain (Trypanosoma cruzi), P25779 | purified cruzain, Z-FR-AMC fluorescence, no detergent | Potency, µM, inactives show max response, negative = inhibition, hits mostly inhibitors | 200,000 tested, 2.3% active | AID 1476, 2009; active = well fitted curve in the direction sought with a large enough effect; inconclusive = small, poorly fitted or top-dose-only effect, or another doubt; inactive = no such curve, though single readings can be large; an effect the other way counts as inactive or inconclusive;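 also: plate controls were enzyme without inhibitor for no effect and buffer without enzyme for full effect; nearly all actives have a fitted effect of over 40% in size; top concentration of the series not given in the record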
Target sequence (P25779 123-467 limits assumed): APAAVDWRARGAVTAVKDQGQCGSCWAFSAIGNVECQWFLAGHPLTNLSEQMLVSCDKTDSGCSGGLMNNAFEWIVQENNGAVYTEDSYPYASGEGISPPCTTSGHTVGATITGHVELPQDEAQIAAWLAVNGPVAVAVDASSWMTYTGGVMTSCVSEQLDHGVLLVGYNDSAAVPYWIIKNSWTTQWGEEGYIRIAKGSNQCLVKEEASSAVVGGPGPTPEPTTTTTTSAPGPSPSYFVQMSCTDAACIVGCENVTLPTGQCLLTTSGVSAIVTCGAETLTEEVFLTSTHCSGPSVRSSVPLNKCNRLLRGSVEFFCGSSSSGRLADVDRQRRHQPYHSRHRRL
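Purified cruzain at 1.5 nM, pre-incubated 15 min with compound at room temperature in 100 mM sodium acetate pH 5.5, 5 mM DTT, 0.00005% Triton X-100. Reaction started with 2 uM Z-FR-AMC; AMC fluorescence increase over 60 s gives rate.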
RE007 growth inh: qHTS Assay for Inhibitors of the HIV-1 protein Vpr; Potency, µM (series often up to 92.2 µM), for the others: at the top dose activity change, negative = less growth; AID 651644, 2012; S. pombe RE007 Vpr strain, BacTiter-Glo ATP luminescence, 24 h; control for the full effect not named in the record; 360,000 tested, 0.21% active; active = well fitted falling curve with a large enough effect; inconclusive = small, poorly fitted or top-dose-only effect; inactive = no such curve, though single readings can be large or run the other way;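 also: % is scaled to controls: 0 for no effect and ±100 for the full control effect; nearly all actives have a fitted effect of over 50% in size; the assay follows cell death caused by Vpr and the record does not say whether a fall means rescue or toxicity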
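Fission yeast RE007 carrying one integrated HIV-1 vpr copy, seeded at OD 0.01 in PMG+AL medium with 23 nL pinned compound. Grown 24 h at 30 degrees; viability read by BacTiter-Glo luminescence after 5 min.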
NS1 function inh: qHTS Assay for Inhibitors of Influenza NS1 Protein Function. S. cerevisiae slowed by influenza A NS1, growth recovery by OD600. Potency, µM (top dose mostly 46.1 µM), for the others: at the top dose activity, positive = more growth. 270,000 tested, 0.4% active; also: actives are rising curves; nearly all actives have a fitted effect of over 50% in size
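S. cerevisiae expressing influenza A NS1, grown in glucose, washed, then diluted 1:100 into pH 6.0 -URA galactose medium with 23 nl compound. Growth recovery read as OD600; NS1-free strain serves as control.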
Cruzain inh Det: qHTS Assay for Promiscuous and Specific Inhibitors of Cruzain (with detergent); Cruzipain (Trypanosoma cruzi), P25779; purified cruzain, Z-FR-AMC fluorescence, 0.01% Triton; Potency, µM, for inactives: max response, negative = inhibition, hits mostly inhibitors; 200,000 tested, 0.43% active; AID 1478, 2009; active = well fitted curve in the direction sought with a large enough effect; inconclusive = small, poorly fitted or top-dose-only effect, or another doubt; inactive = no such curve, though single readings can be large; an effect the other way counts as inactive or inconclusive;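 also: plate controls were neutral wells for no effect and buffer without enzyme for full effect; nearly all actives have a fitted effect of over 40% in size; top concentration of the series not given in the record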
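Detergent-containing run (0.01% Triton X-100) in acetate buffer pH 5.5 with 5 mM DTT: enzyme at 1.5 nM final, 15 min compound preincubation at room temperature, then 2 uM Z-FR-AMC substrate. Activity taken as 60 s fluorescence increase at 360/450 nm.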
Marburg entry inh: qHTS for inhibitors of binding or entry into cells for Marburg Virus; Marburg virus pseudotyped entry inhibition, cell reporter; control for the full effect not named in the record; about a third of the inactives were read at about 46 µM; Potency, µM (highest dose often 37.8 µM), for inactives: at the highest dose activity change, negative = inhibition, usual class: inhibitors; 300,000 tested, 1.8% active; active = well fitted inhibition curve with a large enough effect; inconclusive = small, poorly fitted or top-dose-only effect, or effect the other way; inactive = flat fitted curve, though single readings scatter; tested in HEK293 cells; about a fifth of its hits are not listed in these tables; also: % is scaled to controls: 0 for no effect and ±100 for the full control effect; luciferase read-out
Numbers without * were called inactive; ? = inconclusive; nt = not tested or not shown; & = joins results of further samples; [ ] = remark or other dose. Unless noted, calls follow the shape of the dose curve; as a rule, active means well fitted rising curve with a large enough effect; inconclusive means small, poorly fitted or top-dose-only effect; inactive means no such curve, though single readings can be large or run the other way. Potency is read from the fitted curve at half-maximal effect. Rows are unselected. Share with any hit: about 4.6%.

SMILES | Lassa entry inh | 2A StopGo | SARS PLP yeast | Cruzain noTriton | RE007 growth inh | NS1 function inh | Cruzain inh Det | Marburg entry inh
COc1cc2nc(C3CCC3)n(NC(=O)c3ccco3)c(=O)c2cc1OC | -1%[46.1 µM] | 4% | -1% | nt | 6% | -2% | nt | ?
CCC(Cn1nnc2ccccc2c1=O)NC(=O)Nc1ccccc1Cl (stereo not drawn) | 26%[46.1 µM] | ? | nt | 19% | nt | nt | -1.1% | 5%[46.1 µM]
CCc1ccc(CNCc2ccc(F)cc2)cc1 | -1% | 17% | -15% | 1% | 1% | -6% | -1.0% | ?
CCCOC(=O)Nc1ccc(C(N)=O)cc1 | 13% | 52%[activator] | 1% | -7% | 9% | -12% | 0.5% | 15%
COc1cccc(NC(=O)N2CCN(S(C)(=O)=O)CC2)c1 | 3% | 8% | -1% | nt | -13% | 1% | nt | 7%[46.1 µM]
CC(=O)c1cc2c(cc1NC(=O)CN1CCCCCC1)OCO2 | -2% | -3% | -2% | 8% | -23% | 2% | 1.5% | -27%[46.1 µM]
CC(C)NC(=O)c1ccc2c(=O)n(C3CCCC3)c(=S)[nH]c2c1 | -11% | 3% | -6% | ? | 20% | 7% | 3.4% | 1%
Cc1nn(CC(=O)NC(C)C)c(C)c1[N+](=O)[O-] | 29%[46.1 µM] | 7% | 0% | nt | -16% | 3% | nt | 1%[46.1 µM]
COc1cccc(CNC(=O)CCS(=O)(=O)c2ccc3c(c2)NC(=O)CS3)c1 | nt | -15% | -4% | nt | 3% | 7% | nt | nt
CC(=O)Nc1nc(CCl)cs1 | 15%[46.1 µM] | 13% | -8% | nt | 8% | 1% | nt | 2%[46.1 µM]
O=C(CCl)N1c2ccccc2Sc2c1ccc1ccccc21 | 2%[46.1 µM] | ? | nt | nt | 15% | nt | nt | ?
O=C(c1ccc(Cl)cc1)[C@@H]1[C@@H]2C(=O)N(c3cccc4ccccc34)C(=O)[C@@H]2C2c3ccccc3C=NN21 (stereo partly drawn) | -17% | -8% | -18% | 25µM* | 3% | ? | -0.2% | ?
O=C(CSc1nnnn1-c1cccc(F)c1)NC1CC1 | 4% | 5% | -6% | nt | 10% | nt | nt | 5%
COc1cccc(NC(=O)C(=O)NCCCN2CCCC2=O)c1 | -21% | 17% | 2% | nt | 4% | nt | nt | 15%[46.1 µM]
CC(=O)c1ccc(O)c(CC=C(C)C)c1 | nt | -11% | 2% | nt | 3% | 0% | nt | nt
CCOc1ccccc1N1CC(C(=O)N2CCc3ccccc3C2)CC1=O (stereo not drawn) | -14% | -9% | 8% | 4% | ? | -7% | -1.8% | 1%
Cc1ccc2c(c1)cc(C(=O)N[C@@H](Cc1ccccc1)C(=O)O)n2C | 25%[46.1 µM] | -8% | -1% | nt | -11% | -3% | nt | 19%[46.1 µM]
Cc1ccc2c(c1)c(=O)c1ccccc1n2CCCC(=O)Nc1ccc(C)c(F)c1 | ? | 0% | nt | -18% | nt | nt | -4.6% | nt
COc1ccc(OC)c(C2=C/C(=C/c3ccccn3)C(=O)O2)c1 | 7%[46.1 µM] | 5% | -5% | nt | 12% | nt | nt | 2%[46.1 µM]
CCC(Cc1ccccc1)NC(=O)c1ccc2nc(N3CCOCC3)sc2c1 (stereo not drawn) | nt | -24% | 3% | nt | 0% | -19% | nt | nt
O=C(CC(=O)c1ccccc1)CS(=O)(=O)c1ccccc1 | ? | 0% | nt | nt | 1% | nt | nt | 7%[46.1 µM]
Cc1ccc(NC(=O)Cn2nnc(-c3ccc4c(c3)OCO4)n2)cc1F | 0% | -6% | 6% | nt | -7% | -4% | nt | 11%[46.1 µM]
O=C(C1CCCN(S(=O)(=O)c2ccccc2)C1)N1CCCc2ccccc21 (stereo not drawn) | -17% | ? | 9% | 17% | 12% | -17% | -2.0% | -11%[46.1 µM]
O=C1c2[nH]nc(-c3ccccc3O)c2C(c2ccccc2)N1Cc1ccco1 (stereo not drawn) | 1.5µM* | -23% | -11% | -11% | 26% | nt | -12% | ?
CC(C)(C)c1nnc2sc(SCC(=O)N3CCCc4ccccc43)nn2c1=O | -18% | ? | -3% | 2% | -4% | -11% | -7.5% | -25%
COc1ccc(NS(=O)(=O)c2cc3c4c(c2)CC(=O)N4CCC3)cc1Cl | 13%[46.1 µM] | 33%[activator] | nt | -28% | nt | nt | -6.4% | nt
COc1ccccc1NC(=O)N1CCC(CN2CCc3ccccc3C2)CC1 | 14%[46.1 µM] | -5% | nt | 6% | nt | nt | -0.5% | nt
COc1ccc2c(c1)c(=O)cc(-c1ccccc1)n2C | ? | 8% | 2% | 0% | -24% | 3% | -3.8% | 2%
Cc1nn(C)c(C(=O)N2CCN(C(=O)c3ccco3)CC2)c1[N+](=O)[O-] | -6% | -10% | -8% | -1% | 6% | 1% | -2.8% | 16%
CCOC(=O)C1CCN(C(=O)C2COc3ccccc3C2)CC1 (stereo not drawn) | 3%[46.1 µM] | -4% | nt | -6% | nt | nt | -0.5% | nt
COc1ccc(-c2cc3nc4c(c(N5CCC6(CC5)OCCO6)n3n2)CCC4)cc1 | nt | -1% | -2% | nt | -16% | 3% | nt | nt
COc1ccc(CC(=O)Nc2ccc(C(=O)NCC(C)C)cc2)cc1 | -11% | 2% | -3% | 7% | 0% | 10% | -1.2% | -1%
C=CCN1C(=O)C2(OCCCO2)c2cc(CCCC)ccc21 | -5% | -24% | -1% | nt | -20% | -34% | nt | 0%
CCC(C)NC(=O)C1CCN(C(=O)c2cc3sccc3n2Cc2ccc(Cl)cc2)CC1 (stereo not drawn) | nt | 14µM* | nt | -4% | nt | nt | -4.2% | ?
O=C(O)c1c(Cl)cccc1Nc1ccccc1 | 27%[46.1 µM] | -13% | nt | nt | -11% | nt | nt | 3%[46.1 µM]
O=C(COc1cccnc1[N+](=O)[O-])Nc1c(Cl)cccc1Cl | 20%[46.1 µM] | -8% | -3% | nt | 18% | nt | nt | 1%[46.1 µM]
Cc1ccc(C(=O)NN2C(=O)C3C4C=CC([C@@H]3C2=O)C42CC2)cc1 (stereo partly drawn) | nt | -9% | 1% | nt | -8% | -2% | nt | nt
Cc1nc2cc(C(=O)OCC(=O)Nc3cccc(Cl)c3)ccc2n1-c1ccccc1 | -5% | 1% | ? | 25µM* | -15% | 24% | -7.3% | -19%
CC1(C)CC(=O)C2=C(C1)OC(c1cccs1)C(C#N)=C2N (stereo not drawn) | 2% | nt | 2% | 0% | -7% | -2% | 2.4% | 13%
CN1C(=O)/C(=C/c2ccc(OCc3ccccc3F)cc2)N(C)C1=S | nt | 34%[activator] | -3% | nt | 3% | 6% | nt | nt
O=C(O)C1CC(O)CN1C(=S)Nc1ccccc1 (stereo not drawn) | nt | 4% | 1% | nt | 5% | 5% | nt | nt
O=C(CSc1nc2ccc(NC(=O)c3ccccc3C(=O)O)cc2s1)Nc1c(Cl)cccc1Cl | -25%[46.1 µM] | 9% | -1% | nt | 10% | -26% | nt | ?
COc1ccc(NC(=O)NCCCCc2ccccc2)cc1 | nt | 14% | 3% | nt | -5% | -1% | nt | nt
N#CCSc1nnc(-c2ccccc2O)n1CCc1ccccc1 | -18% | -4% | 0% | -2% | 11% | -2% | 4.7% | 18%[46.1 µM]
Cc1cc(C)c(C#N)c(SCC(=O)c2ccccc2)n1 | nt | -11% | 0% | nt | 12% | -5% | nt | nt

For convenience, some entries already given.
SMILES | Lassa entry inh | 2A StopGo | SARS PLP yeast | Cruzain noTriton | RE007 growth inh | NS1 function inh | Cruzain inh Det | Marburg entry inh
COc1cc2nc(C3CCC3)n(NC(=O)c3ccco3)c(=O)c2cc1OC | -1%[46.1 µM] | 4% | -1% | nt | 6% | -2% | nt | ?
CCC(Cn1nnc2ccccc2c1=O)NC(=O)Nc1ccccc1Cl (stereo not drawn) | 26%[46.1 µM] | ? | nt | 19% | nt | nt | -1.1% | 5%[46.1 µM]
CCc1ccc(CNCc2ccc(F)cc2)cc1 | -1% | 17% | -15% | 1% | 1% | -6% | -1.0% | ?

(continued)
SMILES | Lassa entry inh | 2A StopGo | SARS PLP yeast | Cruzain noTriton | RE007 growth inh | NS1 function inh | Cruzain inh Det | Marburg entry inh
Cc1ccc(CNC(=O)c2cc3c(s2)-c2c(C)cccc2OC3)cc1 | nt | -6% | nt | ? | nt | nt | -29% | 5%[46.1 µM]
c1ccc(CN2CCN(c3nc(NCc4ccco4)c4ccccc4n3)CC2)cc1 | 13µM* | 32µM* | -8% | 4% | 4% | -26% | -2.1% | ?
CCN(CCO)Cc1csc2ccccc12 | ? | 7% | 2% | 13% | 1% | 13% | -1.8% | 3%
CCOc1cc(N2CCOCC2)c(OCC)cc1NC(=O)c1nn(CC)c(=O)c2ccccc12 | -1% | ? | 0% | nt | -10% | nt | nt | -44%
O=C(O)Cc1csc(-c2cccc(Oc3ccccc3)c2)n1 | 1%&-1% | 8%&0% | -1%&-1% | nt | 7%&3% | -2%&-4% | nt | ?
Cc1cccc(C(=O)NCCc2csc(C)n2)c1 | nt | 4% | -12% | 7% | -2% | 3% | -12% | nt
CCCCOCCCN1CC(=O)N2C(C)c3[nH]c4ccccc4c3C[C@H]2C1=O (stereo partly drawn) | nt | -27% | -2% | nt | -11% | 1% | nt | nt
CCC(=O)NC(c1cccs1)c1cc([N+](=O)[O-])c2cccnc2c1O (stereo not drawn) | ? | 0% | ? | 3% | ? | -23% | -2.8% | ?
CCCn1c(C)cc(/C=C(\C#N)C(=O)OCC(=O)NC(=O)NCC)c1C | -24% | 12% | -2% | 8% | -14% | -3% | -4.7% | -15%
Clc1ccc(Cl)c2sc(N3CCCC3)nc12 | 1% | 9% | 12% | ? | -5% | ? | -5.1% | -2%

Bioassay records: PubChem BioAssay, National Center for Advancing Translational Sciences (NCATS)
